# Pol iota inh: inhibitors of human DNA polymerase iota. Q9UNA4. Pol iota fluorescent replication assay, 10 min. Potency, µM (highest dose often 115 µM), for inactives: top-dose activity, negative = inhibition, usual class: inhibitors. 390,000 tested, 1% active. AID 588590
#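 Fluorescent replication assay read twice, at 0 min and 10 min after adding 50 nM (final) substrate. Enzyme (10 nM) and compounds were first incubated 15 min at room temperature; enzyme-free buffer wells were negative controls.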
# Pol kappa inh: inhibitors of human DNA polymerase kappa. Potency, µM (top dose mostly 107 µM), without a hit: at the top dose activity, negative = inhibition, hits mostly inhibitors. Q9UBT6. 400,000 tested, 0.53% active. purified Pol kappa, fluorescent DNA synthesis assay, 10 min; also: % is scaled to controls: 0 for no effect and ±100 for the full control effect
# Target sequence (Q9UBT6 whole entry, looked up): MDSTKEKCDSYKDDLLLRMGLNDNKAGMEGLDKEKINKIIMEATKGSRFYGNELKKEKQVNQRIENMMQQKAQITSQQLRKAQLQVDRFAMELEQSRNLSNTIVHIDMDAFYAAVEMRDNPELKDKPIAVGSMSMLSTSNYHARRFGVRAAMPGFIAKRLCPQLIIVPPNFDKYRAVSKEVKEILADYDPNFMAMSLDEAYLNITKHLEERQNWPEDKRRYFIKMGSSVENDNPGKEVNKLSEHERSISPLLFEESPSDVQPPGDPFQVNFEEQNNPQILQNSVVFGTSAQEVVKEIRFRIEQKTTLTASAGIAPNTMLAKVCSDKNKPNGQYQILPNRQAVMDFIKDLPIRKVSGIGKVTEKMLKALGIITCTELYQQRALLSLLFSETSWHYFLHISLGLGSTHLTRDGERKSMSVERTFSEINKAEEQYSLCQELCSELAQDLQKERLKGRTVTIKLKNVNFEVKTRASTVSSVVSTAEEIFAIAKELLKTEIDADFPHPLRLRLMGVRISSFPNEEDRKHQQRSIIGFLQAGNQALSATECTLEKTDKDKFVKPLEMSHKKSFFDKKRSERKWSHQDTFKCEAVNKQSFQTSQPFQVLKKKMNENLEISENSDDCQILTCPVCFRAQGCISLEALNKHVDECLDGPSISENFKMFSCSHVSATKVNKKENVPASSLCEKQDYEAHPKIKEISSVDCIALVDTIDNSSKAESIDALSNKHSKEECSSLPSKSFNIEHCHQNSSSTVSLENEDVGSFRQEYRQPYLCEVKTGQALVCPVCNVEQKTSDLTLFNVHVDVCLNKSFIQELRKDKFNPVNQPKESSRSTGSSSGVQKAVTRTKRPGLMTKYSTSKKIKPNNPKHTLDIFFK
#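 10 nM Pol kappa was preincubated with compounds for 15 min at room temperature. Reaction started with 50 nM (final) substrate. Fluorescence read kinetically at 0 and 10 min.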
# POLB inh: blocks human DNA polymerase beta activity; P06746; Pol beta primer extension/strand displacement, fluorescence kinetic; Potency, µM (top dose mostly 114 µM), for inactives: at the top dose activity change, negative = inhibition, hits mostly inhibitors; 340,000 tested, 1.3% active; also: % is scaled to controls: 0 for no effect and ±100 for the full control effect
#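 Pol beta (10 nM) and compounds were preincubated 15 min at room temperature, then 50 nM substrate (final) started primer extension/strand displacement. Reads were taken at 0 and 10 min; concentration-response data were fitted to a four-parameter Hill equation.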
# BLM helicase inh: inhibitors of human Bloom syndrome helicase BLM | 350,000 tested, 0.2% active | Potency, µM (series often up to 56.1 µM), for inactives: at the top dose activity change, negative = inhibition, actives largely listed as inhibitors | P54132 | recombinant BLM DNA unwinding, fluorescence dequenching;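 also: plate controls were vehicle for no effect and no enzyme for full effect; nearly all actives have a fitted effect of over 35% in size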
# Pol eta inh: inhibitors of human DNA polymerase eta. Q9Y253. recombinant Pol eta, fluorescent DNA replication assay. Potency, µM (titrated, usually from 114 µM), for the others: at the highest dose activity change, negative = inhibition, hits mostly inhibitors. 390,000 tested, 1.2% active. AID 588591; also: % is scaled to controls: 0 for no effect and ±100 for the full control effect
#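 Fluorescent replication assay: 50 nM final substrate added after a 15 min room-temperature compound preincubation with 10 nM enzyme. Signal taken at 0 min and again at 10 min.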
# G9a block: blocks human histone lysine methyltransferase G9a. 350,000 tested, 8.8% active. G9a H3K9 monomethylation, AlphaScreen, 2 h. Potency, µM (doses to about 102 µM), for inactives: at the highest dose activity, negative = inhibition, hits mostly inhibitors. Q96KQ7. AID 504332; also: % is scaled to controls: 0 for no effect and ±100 for the full control effect; nearly all actives have a fitted effect of over 75% in size
#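 Readings reflect AlphaScreen signal from monomethyl-H3K9 antibody detection. HMT at 20 nM; substrate b-H3K9 500 nM; cofactor SAM 20 uM; 2 h RT reaction; compounds tested as titrations in qHTS with 15 min preincubation.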
# APE1 inh: APE1 (human) endonuclease inhibition. P27695. recombinant APE1, TAMRA/BHQ-2 abasic DNA cleavage fluorescence. Potency, µM (highest dose often 65.8 µM), for the others: at the highest dose activity change, negative = inhibition, hits mostly inhibitors. 350,000 tested, 0.35% active. AID 2517;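 also: plate controls were vehicle for no effect and reference inhibitor for full effect; nearly all actives have a fitted effect of over 55% in size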
#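 Incision of a quenched TAMRA/BHQ-2 THF abasic-site duplex (50 nM) by 0.75 nM APE1, after 15 min compound preincubation, measured as fluorescence increase over three 60 s reads. Values normalized to buffer, DMSO and NSC13755 control wells.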
# * = called active by the depositor; ? = inconclusive; nt = no result given; & = joins results of further samples; [ ] = remark or other dose. Calls follow the shape of the dose curve; as a rule, active = well fitted curve in the direction sought with a large enough effect; inconclusive = small, poorly fitted or top-dose-only effect, or another doubt; inactive = no such curve, though single readings can be large; an effect the other way counts as inactive or inconclusive. Potency is read from the fitted curve at half-maximal effect. The list is partial (hit frequency here may not be typical).
cpd | SMILES | Pol iota inh | Pol kappa inh | POLB inh | BLM helicase inh | Pol eta inh | G9a block | APE1 inh
1 | Cc1cc(C(=O)N/N=C/c2ccccn2)n[nH]1 | 15% | -8% | 5% | 1% | -17% | 9% | -5%
2 | COc1ccc(N=C2c3ccccc3-c3ccc([N+](=O)[O-])cc32)cc1 | 27% | 4% | nt | nt | -12% | nt | nt
3 | CCOC(=O)N1CCC(N2CCN(S(=O)(=O)c3ccc(NC(C)=O)cc3)CC2)CC1 | -2% | 4% | -1% | -2% | -8% | ? | 1%
4 | Cc1cnc(C(=O)Nc2nccs2)cn1 | ? | -26% | ? | ? | ? | nt | -2%
5 | N[C@H](CCC(=O)N[C@H](CSN=O)C(=O)NCC(=O)O)C(=O)O | nt | -10%[19.4 µM] | nt | 1% | nt | nt | -1%
6 | CCN(CC)CCN(C)Cc1ccc(Br)cc1 | 10% | 1% | -19% | 0% | -8% | 2.5µM* | ?
7 | CN(C)c1ccc(-c2nc3cnccn3c2Nc2ccc3c(c2)OCCO3)cc1 | 20% | -11% | -7% | -10% | -17% | ? | -3%
8 | COc1ccc2c(c1)-c1c(ssc1=S)C(C)(C)N2S(=O)(=O)c1ccc(C)cc1 | 6% | -4% | 15% | -6% | -10% | 3.2µM* | -1%
9 | O=C(C1CCN(Cc2cccs2)CC1)N1CCN(Cc2ccc3c(c2)OCO3)CC1 | 59%[activator] | 4% | -11% | -1% | -18% | 2.5µM* | 2%
10 | Cc1cccc(OCc2ccc(-c3nc(C#N)c(N4CCC(C(N)=O)CC4)o3)o2)c1 | -11% | -25% | -7% | -5% | -32% | ? | nt
11 | CC1CC(C)CN(CCCCOc2ccc([N+](=O)[O-])cc2)C1 (configuration not stated) | 53%[activator] | -12% | 1% | -9% | -14% | ? | 3%
12 | CCOC(=O)C1=CN(c2cccc(F)c2)C=C(C(=O)OCC)C1c1cc(OC)c(O)c([N+](=O)[O-])c1 | ? | -1% | 0% | -4% | -11% | ? | 0%
13 | C(=N\c1c(-c2ccccc2)nc2n1CCS2)/c1ccccc1 | 7% | -5% | -15% | -4% | 0% | -40%[12.7 µM] | 0%
14 | CCN(CCCNC(=O)CC(C(=O)N1CCc2ccccc21)n1ccnc1)c1ccccc1 (configuration not stated) | 21% | -12% | -2% | -8% | -13% | 45µM* | -3%
15 | COc1ccc(NC(=O)C2CCCCN2N)cc1OCC(C)C (configuration not stated) | 21% | -7%[60.1 µM] | 3% | -1% | -9% | 10µM* | 1%
16 | Cc1nc(NC(=O)c2ccc(Cl)cc2)sc1Cc1ccc2c(c1)OCO2 | 31%[activator] | -14% | 6% | -9% | -16% | 8.9µM* | 1%
17 | Nc1cc(S(=O)(=O)Nc2cc(Cl)ccc2Cl)ccc1N1CCCC1 | ? | -21% | -2% | -8% | -10% | 8%[12.7 µM] | -12%
18 | CCN(CC)CCCNC(=O)c1ccc(-c2nc(CN3CCc4ccccc43)c(C)o2)cc1 | -10% | -11%[60.1 µM] | 0% | 5% | -15% | ? | nt
19 | Clc1ccccc1OCCN1CCC(Cc2ccccc2)CC1 | -12% | 9% | 0% | -7% | -16% | 8.9µM* | -5%
20 | COc1ccc(-n2c3c(c(=O)[nH]c2=O)C(NC(C)=O)(C(F)(F)F)C(=O)N3)cc1 (configuration not stated) | 214%&13%[activator] | -8% | 36%&1% | 0%&2% | -22%&-22% | 0% | -8%
21 | COc1cc(OC)cc(C(=O)N2CCN(Cc3ccccc3Br)CC2)c1 | 23% | -2% | 20% | -6% | -15% | nt | -1%
22 | CCN1CCN(CC(=O)c2ccc(C)cc2)CC1 | 32% | -6% | 5% | -1% | -14% | 40µM* | 18%
23 | O=C(CNCc1ccco1)Nc1cccc(S(=O)(=O)N2CCCCC2)c1 | ? | -4% | -11% | 0% | -12% | 3.5µM* | -2%
24 | Cn1nc(C(=O)N2CCN(c3ccccc3)CC2)c2c1-c1ccccc1SC2 | 26% | -22% | 1% | -7% | -11% | 16µM* | nt
25 | O=C(NCCCN1CCOCC1)c1ccccc1 | 2% | -7% | 9% | 5% | -11% | 14µM* | 0%
26 | C=CCOc1ccc(/C=N/NC(=O)CN2CCCCC2)cc1OC | 117%[activator] | 4% | 39%[activator] | 4% | -4% | 18%[59 µM] | 10%
27 | CN(C)c1ccc(/C=N/NS(=O)(=O)c2ccc(Br)cc2)cc1 | 45%[activator] | -7% | 0% | -9% | -29% | 40µM* | -5%
28 | Cc1cccc2c1N(CCCOc1ccc(C(C)(C)C)cc1)C(=O)C2=O | ? | -19% | 12% | -18% | ? | 10µM* | -8%
29 | Cc1ccc2nc(NC(=O)COC(=O)c3ccco3)sc2c1 | -4% | -2% | 13% | 1% | -6% | 2.8µM* | 4%
30 | CN(Cc1ccccc1)C(=O)c1ccc2c(c1)OCO2 | 9% | -11% | 1% | -9% | -8% | 28%[59 µM] | 0%
31 | O=C(CNCc1cccnc1)Nc1cc(C(F)(F)F)ccc1N1CCOCC1 | ? | -16% | 18% | -4% | -7% | nt | 0%
32 | COc1ccccc1CN=c1c([N+](=O)[O-])nn(-c2ccc3c(c2)OCCO3)n1O | 15% | -13% | 9% | -2% | -21% | ? | -3%
33 | O=C(Nc1cc(Cl)cc(Cl)c1)C(NCCO)c1ccccc1 (configuration not stated) | -5% | -10% | -5% | 3% | 3% | -7%[0.0925 µM] | 16%
34 | CS(=O)(=O)c1cccc(-c2nnc(NC(=O)C3=COCCO3)o2)c1 | 16% | 4% | nt | nt | -14% | 35µM* | 0%
35 | O=c1c(-c2n[nH]c(=S)o2)cccn1Cc1ccccc1 | 7% | 4% | 11% | 3% | -14% | 25µM* | -3%
36 | O=C(c1ccccc1)c1ccc(OCCCCN2CCCCC2)cc1 | -5% | 4% | 15% | 0% | -8% | ? | -2%
37 | CCOC(=O)C(=O)Nc1nnc2n1CCS2 | -1% | 0%[60.1 µM] | 47% | 0% | -12% | 1.6µM* | nt
38 | Cc1cnc(NC(=O)CN2CCN(c3ccccc3F)CC2)s1 | 10% | -3% | -27% | -3% | -11% | 7.1µM* | 0%
39 | O=C(C1CCCN(Cc2cccc(Cl)c2)C1)N1CCCCC1 (configuration not stated) | 3% | 9% | 2% | 1% | -6% | ? | -7%
40 | CCOC(=O)c1cc(S(=O)(=O)Nc2ccc(Br)c(C)c2)[nH]n1 | -15% | -12%[60.1 µM] | -7% | -5% | 5% | 2.5µM* | nt
41 | O=C(c1cccs1)N1CCN(C2CCCCC2)CC1 | 4% | -6% | 23% | -1% | -5% | 14µM* | -6%
42 | Cc1ccc(C)c(S(=O)(=O)N/N=C/c2ccc(N(C)C)cc2)c1 | 68%[activator] | -11% | 20% | -4% | -23% | ? | 24%
43 | Nn1c(SCc2ccccc2F)nnc1-c1ccccn1 | 4%[58.9 µM] | -12% | 5% | -2% | -1% | -23% | -3%
44 | COc1ccc(-n2nc([N+](=O)[O-])c(=NCCc3ccccc3)n2O)cc1 | 10% | -8% | 5% | 1% | -16% | ? | 3%
45 | O=C(CS(=O)(=O)c1ccc(F)cc1)Nc1nnc(-c2cccs2)o1 | 44%[activator] | -8% | nt | nt | -13% | 35% | -7%
46 | C/C=C/c1ccc(OCCCn2cncn2)c(OC)c1 | -10% | -10% | -24% | 3% | 2% | 2.8µM* | -1%
47 | COc1ccccc1C(=O)N1CCN(Cc2cccnc2)CC1 | 21% | -5% | -10% | -1% | -22% | 10µM* | 17%
48 | O=C(O)Cn1cnc2c(=S)nc[nH]c21 | 11% | 3% | -2% | -5% | -12% | nt | 17%

# 5 of the compounds above, with values under each structure.
# Value order: Pol iota inh | Pol kappa inh | POLB inh | BLM helicase inh | Pol eta inh | G9a block | APE1 inh
48. O=C(O)Cn1cnc2c(=S)nc[nH]c21
  11% | 3% | -2% | -5% | -12% | nt | 17%
47. COc1ccccc1C(=O)N1CCN(Cc2cccnc2)CC1
  21% | -5% | -10% | -1% | -22% | 10µM* | 17%
41. O=C(c1cccs1)N1CCN(C2CCCCC2)CC1
  4% | -6% | 23% | -1% | -5% | 14µM* | -6%
45. O=C(CS(=O)(=O)c1ccc(F)cc1)Nc1nnc(-c2cccs2)o1
  44%[activator] | -8% | nt | nt | -13% | 35% | -7%
44. COc1ccc(-n2nc([N+](=O)[O-])c(=NCCc3ccccc3)n2O)cc1
  10% | -8% | 5% | 1% | -16% | ? | 3%

# Rewritten in transposed form: two of the compounds above
29) Cc1ccc2nc(NC(=O)COC(=O)c3ccco3)sc2c1
18) CCN(CC)CCCNC(=O)c1ccc(-c2nc(CN3CCc4ccccc43)c(C)o2)cc1
assay / entry | 29 | 18
Pol iota inh | -4% | -10%
Pol kappa inh | -2% | -11%[60.1 µM]
POLB inh | 13% | 0%
BLM helicase inh | 1% | 5%
Pol eta inh | -6% | -15%
G9a block | 2.8µM* | ?
APE1 inh | 4% | nt

# Continuation.
cpd | SMILES | Pol iota inh | Pol kappa inh | POLB inh | BLM helicase inh | Pol eta inh | G9a block | APE1 inh
49 | CCc1cc(C(=O)c2ccc(OC)cc2)c(NC(=O)CN2CCCC2)s1 | -2% | -6% | 2% | 3% | -8% | nt | -10%
50 | COc1ccc(C=NN=C2c3ccccc3-c3ccccc32)cc1O | 4% | -15% | nt | nt | ? | nt | nt
51 | CC1=CC(C)(C)N(C(=O)CNC2CCCCC2)c2cc(C)ccc21 | 113%[activator] | -8% | 0% | -2% | -13% | 18µM* | -5%
52 | CC(=O)[C@H]1[C@H]([C@H](O)[C@H](O)CO)O[C@](O)(C(=O)O)C[C@@H]1O | -7% | 17% | nt | nt | -8% | 0.5µM* | -38%
53 | COc1ccccc1N1CCN(CC(=O)NCC2CCCO2)CC1 (configuration not stated) | -5% | -15% | -7% | 4% | -12% | 7.1µM* | -1%
54 | O=C(CSc1nnc(-c2ccccc2)o1)c1nnc(-c2ccccc2)o1 | -24% | -14% | -24% | -17% | 20µM* | -21%[59 µM] | 2%
55 | Cc1ccc(C(C)(C)C)c(OCCCCN2CCCC2)c1 | -14% | -1% | 27% | -11% | -19% | 8.9µM* | 5%
56 | Cc1nc2cc(S(=O)(=O)N3CCC(C(=O)O)CC3)ccc2n1C1CCCC1 | 4% | -8% | -1% | 0% | 12% | -29% | -3%
57 | CN(C)CCN(C(=O)c1ccc2c(c1)CCCC2)c1nc2c(F)cccc2s1 | ? | -19% | 13% | -9% | -2% | 40µM* | 23%
58 | COc1cc(CN2CCCCCC2)cc([N+](=O)[O-])c1O | 8% | -17% | 35% | -5% | -4% | 20%[0.501 µM] | 30%
59 | O=C(c1ccncc1)N1CCN(C2CCC(c3ccccc3)CC2)CC1 (configuration not stated) | 10% | -1% | 29% | 2% | -7% | nt | 16%
60 | Cc1nccn1C(c1ccccc1)c1ccccc1 | 32%[activator] | -5% | nt | nt | -9% | nt | nt
61 | Cc1nc(=O)c(-c2ccccc2)c(C)n1-c1ccc(O)c(C(=O)O)c1 | 1% | -9% | 14% | 1% | 4% | ? | -3%
62 | CC(O)[C@@H](O)[C@H]1CNc2nc(N)[nH]c(=O)c2N1 (some centres not stated) | 2%[58.9 µM] | nt | 17%[57.1 µM] | nt | -3%[57.1 µM] | 3.5µM* | -5%

# Source: PubChem BioAssay (National Center for Advancing Translational Sciences (NCATS))
